Screening results (PubChem)
MbtI inh: MbtI salicylate synthase inhibitors, primary screen, biochemical, fluorescence intensity; P9WFX0; purified MbtI enzyme, fluorescence intensity read-out; inhibition, %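 (about 17 µg/mL by stock and volumes)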; 0.89% of 100,000 active; AID 493033, 2011;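 active means above 50% in both replicates, above 80% if mildly self-fluorescent; inactive means the rest, strongly fluorescent compounds included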;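 further: 0% = mean of negative and 100% = mean of positive controls; one replicate is shown; some compounds called inactive have numbers as strong as hits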
Target sequence (P9WFX0 whole entry, looked up): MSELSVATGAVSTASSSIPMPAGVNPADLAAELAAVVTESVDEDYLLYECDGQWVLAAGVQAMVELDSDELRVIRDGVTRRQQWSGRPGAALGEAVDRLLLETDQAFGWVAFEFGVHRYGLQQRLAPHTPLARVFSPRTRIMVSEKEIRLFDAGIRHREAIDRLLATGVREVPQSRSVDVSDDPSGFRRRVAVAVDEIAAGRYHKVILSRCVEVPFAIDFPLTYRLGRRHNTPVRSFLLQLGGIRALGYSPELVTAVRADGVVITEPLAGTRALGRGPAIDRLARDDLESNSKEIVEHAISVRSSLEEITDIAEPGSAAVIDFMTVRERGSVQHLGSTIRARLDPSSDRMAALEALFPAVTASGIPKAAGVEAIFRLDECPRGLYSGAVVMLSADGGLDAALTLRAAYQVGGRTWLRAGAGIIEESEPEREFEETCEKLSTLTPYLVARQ
Polio RdRp inh: poliovirus RdRp elongation inhibitors, primary screen, biochemical, fluorescence polarization, total intensity; Genome polyprotein (Poliovirus type 1 (strain Mahoney)), P03300; poliovirus polymerase elongation; active compounds read low; 0.66% of 150,000 active; % elongation, % (compound at 16.7 µg/mL); in the data active means % elongation below about 90%; further: some results filed as inactive read as strong as hits
Target sequence (P03300 1749-2209 limits assumed): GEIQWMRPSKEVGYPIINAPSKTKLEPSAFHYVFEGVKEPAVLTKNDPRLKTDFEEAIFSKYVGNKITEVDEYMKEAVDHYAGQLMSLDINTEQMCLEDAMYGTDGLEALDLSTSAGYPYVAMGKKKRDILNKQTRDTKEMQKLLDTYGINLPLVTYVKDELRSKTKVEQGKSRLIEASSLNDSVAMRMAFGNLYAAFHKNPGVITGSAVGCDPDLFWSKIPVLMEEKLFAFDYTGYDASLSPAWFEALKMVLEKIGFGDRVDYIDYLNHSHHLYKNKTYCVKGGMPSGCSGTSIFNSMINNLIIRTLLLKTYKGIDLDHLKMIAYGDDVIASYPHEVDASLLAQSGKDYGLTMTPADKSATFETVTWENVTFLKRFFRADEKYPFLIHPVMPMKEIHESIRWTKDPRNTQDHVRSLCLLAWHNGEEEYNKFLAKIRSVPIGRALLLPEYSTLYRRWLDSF
Mtb MenB inh: M. tuberculosis MenB inhibitors, primary screen, biochemical, absorbance | MenB enzyme assay, absorbance read-out; some hits fall short of the stated cut | inhibition, %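 (about 12 µg/mL by stock and volumes)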 | 0.43% of 100,000 active | AID 540299, 2011;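 active means mean of two replicates above 30%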;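 further: 0% = no compound and 100% = wells with inactive enzyme; the first replicate is given; strong numbers were not always called active; inactives centre near -10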
Polio RdRp inh intensity: further read-out of Polio RdRp inh, marked with its call; % elongation; measured here: total intensity read-out; formula for this scale not given here;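 total fluorescence in place of polarization; lower means less elongation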
* marks the source's active call; other numbers are inactive results; x = not tested or not shown.

1) Cc1ccc(-c2cc(C(F)F)nc(N3CCCCC3)n2)cc1
2) CCCCOC(=O)C1COc2ccccc2O1 (configuration not stated)
3) Cn1c(SCCOc2ccccc2)nc2ccccc21
4) CCCNC(=O)CSc1nnc(C)o1
5) CCOC(=O)c1nc(N2CCOCC2)c2ccccc2n1
6) COc1cc(OC)cc(C(=O)OCC(=O)N2CCCC2)c1
7) C/C(=N/NS(=O)(=O)c1ccc(C)cc1)c1c(O)c2ccccc2oc1=O
8) Cn1c(NNC(=O)C(c2ccccc2)c2ccccc2)cc(=O)n(C)c1=O
assay / compound,1,2,3,4,5,6,7,8
MbtI inh,7,-7,19,12,6,-8,-2,2
Polio RdRp inh,100,103,104,101,102,104,102,106
Polio RdRp inh intensity,99,97,101,105,101,109,102,97
Mtb MenB inh,-18,-24,-12,-9,-31,-13,-11,-27

9) O=C(NCCCn1ccnc1)c1ccc(S(=O)(=O)Nc2ccccc2)cc1
10) Cc1ccc(C2N3CCCN23)cc1 (configuration not stated)
11) Cc1ccc(C(=O)NCC2CCCO2)cc1C (configuration not stated)
12) Cn1ccnc1Sc1ccnc2cc(Cl)ccc12
13) CSc1cccc(N2C(=S)NC3c4ccccc4OC24CCCC34)c1 (configuration not stated)
14) Cc1cc(C)c(OCC(O)CNC2CC(C)(C)NC(C)(C)C2)c(C)c1 (configuration not stated)
15) N/C(=N\c1ncn[nH]1)N/N=C/c1c(Cl)cccc1Cl
16) CC(C)C(=O)Nc1ncc(C(F)(F)F)cc1Cl
assay / compound,9,10,11,12,13,14,15,16
MbtI inh,15,1,x,23,7,-14,23,-3
Polio RdRp inh,102,101,101,103,100,99,100,103
Polio RdRp inh intensity,103,100,97,99,102,100,94,102
Mtb MenB inh,-7,-21,-1,1,-38,x,-14,x

17) CCOC(=O)CN(C)Cc1ccc(OC)cc1OC
18) COc1ccc(-c2sccc2C(C)C(=O)O)cc1 (configuration not stated)
19) CCNC(=S)N1c2ccccc2NC2=C(C(=O)CC(C)(C)C2)C1c1ccc(N(C)C)cc1 (configuration not stated)
20) COC(=O)c1cc2ccsc2n1Cc1cccc(F)c1
21) O=C(CSc1nnc(COc2ccccc2)o1)c1ccccc1
22) CCCC(=O)Nc1c(C(=O)c2ccccc2)oc2ccccc12
23) CN1/C(=C/C=N/O)C(C)(C)c2ccccc21
24) CCN1C/C(=C\c2cccs2)C(=O)/C(=C/c2cccs2)C1
assay / compound,17,18,19,20,21,22,23,24
MbtI inh,-12,6,8,2,6,6,11,11
Polio RdRp inh,100,105,101,102,100,100,102,101
Polio RdRp inh intensity,102,103,109,104,100,100,100,104
Mtb MenB inh,-4,27*,-47,-15,-31,14,x,-118

25) COc1ccc(N2CCN(C(=O)c3ccc(NS(=O)(=O)c4cccs4)cc3)CC2)cc1
26) Cc1cc(C)n(CCC(N)=O)n1
27) CON(C)c1nc(-c2cccnc2)nc2ccccc12
28) N#CC(Nc1ccc(F)cc1)c1ccco1 (configuration not stated)
29) S=C1NN=C(c2ccccc2)C(c2ccccc2)N1 (configuration not stated)
30) C=CCN1CCN(C(=O)c2ccccc2C)CC1
31) CN1CCN(c2ccc(NC(=O)CSc3ccc(Cl)cc3)cc2)CC1
32) Cc1ccn(CCC(=O)Nc2cccc(C(F)(F)F)c2)n1
assay / compound,25,26,27,28,29,30,31,32
MbtI inh,-5,0,-5,7,23,-15,-8,-12
Polio RdRp inh,101,100,111,102,101,101,101,99
Polio RdRp inh intensity,103,96,109,109,100,102,101,101
Mtb MenB inh,-16,x,-14,-45,-11,-5,10,-1

33) CN(CC(=O)Nc1ccc(F)cc1)C(=O)CSc1nnc(Cc2ccccc2)o1
34) O=C(O)CC(c1ccncc1)c1c[nH]c2ccccc12 (configuration not stated)
35) COCC(C)n1c(C)cc(C(=O)COC(=O)c2ccc3c(c2)S(=O)(=O)N=C2CCCCCN23)c1C (configuration not stated)
36) O=C(c1ccccc1)N1CCN(c2ncccn2)CC1
37) CCOC(=O)C1CCCN(C(=O)c2cccc3ccccc23)C1 (configuration not stated)
38) CCOC(=O)c1cnc(O/N=C/c2ccc(F)cc2)nc1C(F)(F)F
39) Cc1ccc(C(=O)/C=C/Nc2ccc(C(F)(F)F)cc2)cc1
40) CCN(CC)S(=O)(=O)c1ccccc1
assay / compound,33,34,35,36,37,38,39,40
MbtI inh,5,6,-10,25,-6,16,-9,-7
Polio RdRp inh,x,97,102,98,100,100,110,100
Polio RdRp inh intensity,x,102,106,105,98,99,112,101
Mtb MenB inh,-21,-4,-147,-15,x,-10,-15,2

41) CNC(=O)n1ccc(C(=O)N2CCCCC2)n1
42) CCN(CC)c1cccc(OCC(=O)NCc2cccs2)c1
43) CC(SCC(=O)NC12CC3CC(CC(C3)C1)C2)C(=O)O (configuration not stated)
44) O=C(CN(CC(=O)Nc1ccc2c(c1)OCCO2)S(=O)(=O)c1ccccc1)Nc1ccc2c(c1)OCCO2
45) O=C(Nc1ccc(F)cc1)NC1(C(=O)O)CCCCC1
46) CC(C)NC(=O)N1CCn2cccc2C1Cc1ccccc1 (configuration not stated)
47) COC(=O)CCn1cc(C=C2C(=O)NC(=O)NC2=O)c(-c2ccccc2)n1
48) CCOc1ccc(NC(C)c2cc(Cl)ccc2O)cc1 (configuration not stated)
assay / compound,41,42,43,44,45,46,47,48
MbtI inh,0,-22,-10,5,-5,18,23,-16
Polio RdRp inh,99,112,102,108,105,100,106,101
Polio RdRp inh intensity,102,134,108,110,102,103,106,103
Mtb MenB inh,-6,-22,x,-29,-6,7,-17,-9

49) O=C(O)c1cnn2c(C(F)(F)F)cc(-c3cccs3)nc12
50) CC1=NN(c2cccc(Cl)c2)C(=O)/C1=C\N1CCOCC1
51) CC1CCC(NC(=O)CCCn2ncn3c(cc4occc43)c2=O)CC1 (configuration not stated)
52) COc1ccc(O)c(C(=O)c2cnn(C(=O)c3cccc(S(=O)(=O)N4CCOCC4)c3)c2)c1
53) Cc1nc(-c2cccc(NC(=O)c3ccco3)c2)cs1
54) CCn1nc(C(=O)N/N=C/c2cccc(OC)c2)c2ccccc2c1=O
55) CCCCN1C(=O)c2ccc(C(=O)Nc3cccnc3)cc2C1=O
56) COC(=O)/C(=C(/O)CSc1nnc(-c2cccc(S(=O)(=O)N3CCCCC3)c2)o1)c1nc2ccccc2[nH]1
assay / compound,49,50,51,52,53,54,55,56
MbtI inh,11,35,4,3,-9,4,-6,-10
Polio RdRp inh,99,95,103,109,103,106,103,x
Polio RdRp inh intensity,102,96,103,111,104,112,102,x
Mtb MenB inh,-49,-20,-7,-4,-19,-17,-24,-5

4 structures already listed, sorted by formula weight, largest number first.
56) COC(=O)/C(=C(/O)CSc1nnc(-c2cccc(S(=O)(=O)N3CCCCC3)c2)o1)c1nc2ccccc2[nH]1
52) COc1ccc(O)c(C(=O)c2cnn(C(=O)c3cccc(S(=O)(=O)N4CCOCC4)c3)c2)c1
51) CC1CCC(NC(=O)CCCn2ncn3c(cc4occc43)c2=O)CC1 (configuration not stated)
54) CCn1nc(C(=O)N/N=C/c2cccc(OC)c2)c2ccccc2c1=O
assay / compound,56,52,51,54
MbtI inh,-10,3,4,4
Polio RdRp inh,x,109,103,106
Polio RdRp inh intensity,x,111,103,112
Mtb MenB inh,-5,-4,-7,-17

New compounds follow:
57) Cc1nc2ncc3c(n2n1)CCc1ccccc1-3
58) CCCc1cc2c(=O)c(-c3ccc4c(c3)OCCO4)c(CC)oc2cc1O
59) CC1CCN(C2=NN3C(=N)/C(=C\c4ccc(SCc5ccco5)o4)C(=O)N=C3S2)CC1
60) C=CCn1c(C(C)NC(=O)CC)nc2ccccc21 (configuration not stated)
61) COc1cc(OC)cc(C2=NC3(CCC(C)CC3)NC2=O)c1 (configuration not stated)
62) N#Cc1ccc(CSc2nc3ccccc3c(=O)n2Nc2ccccc2)cc1
63) O=C(CC1OC(=O)c2ccccc21)NCc1ccc(Cl)cc1 (configuration not stated)
64) CCS(=O)c1ccccc1C(=O)OCC(=O)N1CCC(c2ccccc2)=N1 (configuration not stated)
assay / compound,57,58,59,60,61,62,63,64
MbtI inh,87,-4,4,12,0,-4,-7,11
Polio RdRp inh,101,101,102,102,101,100,100,102
Polio RdRp inh intensity,101,98,105,102,100,108,101,104
Mtb MenB inh,-33,0,-14,-17,-2,-34,x,-26

65) COc1ccc(OC)c(C(=O)c2ccc(C(=O)O)cc2)c1
66) O=C(Nc1cccc(Cl)c1)OC1CCCCC1
67) O=C(CSc1nc2ccccc2c(=O)n1-c1ccc(F)cc1F)NC1CCCC1
68) CCN(CC)S(=O)(=O)c1ccc2c(c1)nc(CCC(=O)OCC(=O)c1ccc(Cl)s1)n2C
69) COc1cc(C=Nn2c(-c3ccc(C)cc3)n[nH]c2=S)ccc1OC(C)=O
70) Cc1ccccc1CSc1nnc2c(n1)[nH]c1ccccc12
71) O=C(C1CCN(S(=O)(=O)c2cnc[nH]2)CC1)N(CCc1ccccc1)Cc1ccccc1
72) O=C1CSC(=O)N1CCN1C(=O)CSC1=O
assay / compound,65,66,67,68,69,70,71,72
MbtI inh,0,-19,-6,-40,7,-2,-3,-106
Polio RdRp inh,x,105,102,117,101,102,103,98
Polio RdRp inh intensity,x,106,99,121,102,106,108,98
Mtb MenB inh,-23,-11,x,-21,-47,-25,-25,5

73) NC(=O)C1CCN(c2ncnc3sccc23)CC1
74) c1ccc(CN2CN(c3nccs3)CN(c3nccs3)C2)cc1
75) CC(C)C(NC(=O)c1ccc2c(c1)OCO2)c1nnc(SCC(=O)NC2CCCCC2)n1C (configuration not stated)
76) CN(C(=O)COC(=O)c1ccc(-c2ccccc2)cc1)c1ccccc1
77) Cc1ccc(Nc2cc(C(=O)N3CC(C)CC(C)C3)c3ccccc3n2)cc1C (configuration not stated)
78) CC(=O)N=c1scc(-c2ccccc2)n1-c1cccc2ccccc12
79) CNC(=O)COc1cccc2c(=O)[nH]ccc12
80) Cc1cccc(-c2nc(C#N)c(N3CCCCC3)o2)c1
81) Cc1cc(NS(=O)(=O)c2cccc(F)c2)n(-c2ccccc2)n1
82) CCN(CC)S(=O)(=O)c1ccc2c(c1)nc(SCc1csc(NC(C)=O)n1)n2CC
83) NC(=O)C1CCN(CC(=O)NCc2ccccc2Cl)CC1
assay / compound,73,74,75,76,77,78,79,80,81,82,83
MbtI inh,2,-6,26,-2,10,2,-41,-356,1,-3,2
Polio RdRp inh,113,103,103,102,101,105,98,100,100,107,98
Polio RdRp inh intensity,112,103,103,102,102,108,100,103,99,109,109
Mtb MenB inh,0,-1,-42,x,-36,x,9,-17,x,-14,13

Rewritten with two lines to a compound: part of the list above.
Fields: MbtI inh | Polio RdRp inh | Polio RdRp inh intensity | Mtb MenB inh
(33) CN(CC(=O)Nc1ccc(F)cc1)C(=O)CSc1nnc(Cc2ccccc2)o1
 : 5 | x | x | -21
(34) O=C(O)CC(c1ccncc1)c1c[nH]c2ccccc12 (configuration not stated)
 : 6 | 97 | 102 | -4
(35) COCC(C)n1c(C)cc(C(=O)COC(=O)c2ccc3c(c2)S(=O)(=O)N=C2CCCCCN23)c1C (configuration not stated)
 : -10 | 102 | 106 | -147
(36) O=C(c1ccccc1)N1CCN(c2ncccn2)CC1
 : 25 | 98 | 105 | -15

In another format: results already given.
item	SMILES	MbtI inh	Polio RdRp inh	Polio RdRp inh intensity	Mtb MenB inh
75	CC(C)C(NC(=O)c1ccc2c(c1)OCO2)c1nnc(SCC(=O)NC2CCCCC2)n1C (configuration not stated)	26	103	103	-42
76	CN(C(=O)COC(=O)c1ccc(-c2ccccc2)cc1)c1ccccc1	-2	102	102	x
